Source: PubChem BioAssay
Ecoli growth = E. coli growth inhibition, primary screen, OD600 | Escherichia coli growth, 23 h; active compounds read low | 330,000 tested, 0.21% active | OD600 absorbance (no concentration beside the values);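 active means OD600 absorbance below the run mean of sample wells minus 3.6 SD, in any replicate, cut at about 0.56 in these data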;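 further: stock transfer was 300 nL into about 60 µL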
FGF22 binding = binders of human FGF22 protein, primary screen, FGF22 synaptogenesis inhibitor project, biophysical, thermal shift, single point; Fibroblast growth factor 22 (Homo sapiens), Q9HCT0; recombinant FGF22 thermal shift, SYPRO orange fluorescence; percent of sucrose octasulfate shift, DMSO zero; calls only at 9.99 µM; 340,000 tested, 1.5% active; AID 651658, 2012;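 active means melting point raised past a set limit in the mean and every replicate; three in four hits are not shown here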
Target sequence (Q9HCT0 whole entry, looked up): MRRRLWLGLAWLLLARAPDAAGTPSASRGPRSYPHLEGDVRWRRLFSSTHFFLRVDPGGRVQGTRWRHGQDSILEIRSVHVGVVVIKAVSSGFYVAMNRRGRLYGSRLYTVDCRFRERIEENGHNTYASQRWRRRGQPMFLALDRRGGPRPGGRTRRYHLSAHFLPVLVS
rRNA inh HTS = reduced GFP signal of wild-type E. coli, primary screen, bacterial rRNA inhibitor project, GFP/RFP fluorescence, OD600, single point. E. coli WT GFP vs humanized-ribosome RFP mutants, 24 h; active compounds read low; DMSO median 0, no signal -100. GFP signal change (wild-type ribosome), % (no concentration beside the values). 350,000 tested, 1.6% active. AID 720706, 2013;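 active means significant combined selectivity score with lowered wild-type GFP, culture density cut under 30%, mutant RFP and density less affected; inactive means any of these conditions unmet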; further: one replicate is shown; some compounds called inactive have numbers as strong as hits
HNF4A DNA FP = change in binding of human HNF4A to DNA, primary screen, biochemical, fluorescence polarization, FITC-DNA; Hepatocyte nuclear factor 4-alpha (Homo sapiens), P41235; 1 h; activity change, % at 10 µM; 360,000 tested, 0.3% active; AID 1224865, 2016; in the data active means activity change above about 30%, passing the limit was not always enough;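 further: controls were the assay level and a saturating level of protein; the project sought stronger binding though the title names inhibitors; some compounds called inactive have numbers as strong as hits; positive values seem to mean higher polarization but the record does not say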
Target sequence (P41235 whole entry, looked up): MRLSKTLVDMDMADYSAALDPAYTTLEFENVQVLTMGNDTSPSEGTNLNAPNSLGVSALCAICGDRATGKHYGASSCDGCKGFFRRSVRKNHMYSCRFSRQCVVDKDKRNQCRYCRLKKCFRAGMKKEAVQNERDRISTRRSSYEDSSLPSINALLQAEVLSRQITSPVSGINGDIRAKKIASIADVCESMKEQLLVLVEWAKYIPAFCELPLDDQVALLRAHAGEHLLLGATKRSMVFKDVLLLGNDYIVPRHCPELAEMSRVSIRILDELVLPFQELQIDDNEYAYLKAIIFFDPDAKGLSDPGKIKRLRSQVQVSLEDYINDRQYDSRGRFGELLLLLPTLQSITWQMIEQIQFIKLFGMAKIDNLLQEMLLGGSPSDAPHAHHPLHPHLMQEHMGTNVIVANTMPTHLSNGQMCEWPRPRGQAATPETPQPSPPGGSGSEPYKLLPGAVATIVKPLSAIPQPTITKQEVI
ALR H2O2 inh = inhibitors of human ALR sulfhydryl oxidase, primary screen, biochemical, H2O2 detection, HRP-luminol luminescence, single point | FAD-linked sulfhydryl oxidase ALR (Homo sapiens), P55789 | purified ALR, DTT oxidation | inhibition, % (concentration not given with the values) | 290,000 tested, 3.8% active | AID 485317, 2010;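 active means mean and each replicate at 75% or more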;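 further: stock transfer was 7.5 nL into about 7.5 µL; 0% = neutral wells and 100% = wells with inactivated enzyme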
UCH37 inh = inhibitors of human UCH37 deubiquitinase, primary screen, biochemical, Ub-AMC cleavage, fluorescence; Ubiquitin carboxyl-terminal hydrolase isozyme L5 (Homo sapiens), Q9Y5K5; purified proteasome/UCH37; inhibition, % (no concentration beside the values); 330,000 tested, 0.33% active; AID 588478, 2011;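 active means mean of two replicates above 20%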;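 further: 0% = compound-free wells with enzyme and 100% = wells lacking proteasome; stock transfer was 100 nL into about 20 µL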
Target sequence (Q9Y5K5 whole entry, looked up): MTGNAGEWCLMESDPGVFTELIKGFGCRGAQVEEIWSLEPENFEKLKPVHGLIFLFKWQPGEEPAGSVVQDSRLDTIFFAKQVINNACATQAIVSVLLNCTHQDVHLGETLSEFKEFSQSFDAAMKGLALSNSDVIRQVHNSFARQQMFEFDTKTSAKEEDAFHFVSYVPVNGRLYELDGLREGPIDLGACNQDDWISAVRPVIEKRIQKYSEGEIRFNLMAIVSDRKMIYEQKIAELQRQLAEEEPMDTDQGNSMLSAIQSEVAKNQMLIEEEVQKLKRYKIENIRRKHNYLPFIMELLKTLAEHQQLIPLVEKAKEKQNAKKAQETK
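Schedule: 30 min plus 25 min, room temperature / Material: human UCH37 within purified proteasomes / Technique: AMC fluorescence intensity at 355/460 nm / Buffer or medium: pH 7.4 Tris-HCl (50 mM) with ovalbumin, ATP-MgCl2, DTT / Controls: wells without proteasome as full block, compound-free enzyme plus substrate as uninhibited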
Beta2AR agonist = beta2AR agonists driving receptor internalization, primary screen, cell-based, FAP fluorogen, flow cytometry; Am2.2-beta2AR cells; reference of the scale not given here; response, % (concentration not given with the values); 340,000 tested, 0.43% active; AID 504454, 2011;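 active means response above a set limit, near 3 SD of response in nonfluorescent compounds, cut at about 42% in these data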;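 further: stock transfer was 100 nL into about 11 µL; a reference agonist was the positive control; negative values mostly stem from fluorescent compounds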
rRNA inh HTS OD600 = also measured in rRNA inh HTS; calls as there; OD600 change, %; measured here: OD600 growth;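 optical density of the mix in the first replicate; 0 = DMSO median and -100 = no signal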
rRNA inh HTS RFP = second read-out of rRNA inh HTS, no call of its own (marks repeat the call); RFP signal change, %; measured here: RFP humanized mutant strains;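 first replicate; 0 = DMSO median and -100 = no signal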
* = called active by the depositor; i = inactive; . = no result given; & = joins results of further samples. Some of the compounds tested (hit frequency here may not be typical).

SMILES | Ecoli growth | FGF22 binding | rRNA inh HTS | rRNA inh HTS OD600 | rRNA inh HTS RFP | HNF4A DNA FP | ALR H2O2 inh | UCH37 inh | Beta2AR agonist
CN(CC(=O)NCCc1ccccn1)S(=O)(=O)c1ccc(Cl)cc1 | 0.694 | i | 2.9 | -0.5 | -2.3 | 7.5 | . | 1.9 | -3.9
Cc1cccc(-c2nnc(-c3cccc4ccccc34)o2)c1 | 0.642 | i | 0.0 | 8.0 | -2.1 | -2.4 | . | -126.4 | 4.5
CCOC(=O)C1(Cc2ccc(Cl)cc2)CCN(C(=O)c2cnc(C)cn2)CC1 | 0.725 | i | -14.6 | -10.3 | -12.0 | 2.2 | . | 2.1 | 5.3
Cc1ccc(-n2nnnc2SCC(=O)c2c(N)n(C3CC3)c(=O)[nH]c2=O)cc1C | 0.68 | i | 2.5 | 4.1 | -3.1 | 0.5 | 2.5 | -1.4 | -3.2
CCC(C)(C(=O)NC1CCCC1)N(C(=O)CC1NC(=O)NC1=O)c1ccc(C)cc1 (stereo not drawn) | 0.705 | . | . | . | . | -0.3 | . | 1.8 | -2.0
Cn1c(SCC(=O)Nc2nncs2)nnc1C1CC1 | 0.706 | i | 2.3 | 3.4 | -4.0 | -10.8 | 4.6 | 2.3 | -2.0
CC(=O)c1cccc(NC(=O)c2cc(C)nn2-c2ccccc2)c1 | 0.652 | i | -0.4 | -7.3 | 1.7 | 3.9 | . | 2.8 | 8.3
N#CC1=C(N)Oc2n[nH]c(-c3cccs3)c2C1C1C=CCCC1 (stereo not drawn) | 0.688 | . | . | . | . | -5.3 | 13.1 | 3.4 | 7.3
CC(C)(C)OC(=O)NCCCC[C@H](NC(=O)c1[nH]cnc1C(=O)N[C@@H](Cc1ccccc1)C(=O)OC(C)(C)C)C(=O)OC(C)(C)C | . | i | 8.4 | 8.9 | -7.9 | 4.1 | -4.8 | 3.9 | 0.1
CCSc1nnc(NC(=O)C2(C)Cc3ccccc3C(=O)O2)s1 (stereo not drawn) | 0.751 | . | . | . | . | 1.8 | -1.7 | 3.2 | -2.2
Cc1cccc(-c2nc(CS(=O)CC(=O)N3CC(C)CC(C)C3)c(C)o2)c1 (stereo not drawn) | 0.651 | i | 1.3 | 9.7 | 0.2 | 1.8 | 95.8* | -0.1 | 0.6
N#C/C(=C\Nc1ccc2c(c1)OCCO2)C(=O)NCc1ccco1 | 0.62 | i | -2.2 | -7.8 | -0.6 | 4.3 | -8.8 | 7.9 | -3.7
COc1cc(C(=O)OCC(=O)N2CCCC2)cc2c1OCCO2 | 0.681 | i | 1.9 | 5.8 | -3.1 | 0.2 | -1.1 | 0.3 | 1.1
COc1cc(OC)c(C(=O)OCCCOC(=O)c2cc(OC)c(OC)cc2OC)cc1OC | 0.738 | i | -4.9 | 6.3 | -1.9 | -2.9 | -24.5 | 7.2 | 5.9
O=C(NCC(O)COc1ccc([N+](=O)[O-])cc1)c1ccccc1 (stereo not drawn) | 0.646 | i | 4.5 | 11.5 | -0.3 | -1.1 | -6.6 | 4.7 | 2.0
C[C@@H]1CN([C@H](C)CO)C(=O)c2cc(NS(=O)(=O)c3cn(C)cn3)ccc2O[C@@H]1CN(C)S(C)(=O)=O | 0.811 | i | 0.5&13.7 | 5.6&8.1 | -0.4&-6.4 | 1.2 | -1.4 | 2.2 | -5.3
CNc1nc(NCc2ccccc2)c2sccc2n1 | . | i | 5.8 | -10.6 | -4.6 | 1.1 | . | . | .
O=C(Oc1ccc2ccc(=O)oc2c1)N1CCOCC1 | 0.741 | . | . | . | . | -2.9 | -1.8 | -17.7 | -2.3
O=S(=O)(c1ccc2ccccc2c1)N1CCCCC1 | 0.725 | i | -27.6 | -22.3 | 4.0 | 3.3 | -10.3 | 5.0 | 0.3
Cc1csc(NC(=O)c2cc3c(s2)CCCCC3)n1 | 0.677 | . | . | . | . | -0.2 | 26.2 | 3.2 | 4.2

Random excerpt: four compounds from above
SMILES | Ecoli growth | FGF22 binding | rRNA inh HTS | rRNA inh HTS OD600 | rRNA inh HTS RFP | HNF4A DNA FP | ALR H2O2 inh | UCH37 inh | Beta2AR agonist
CCOC(=O)C1(Cc2ccc(Cl)cc2)CCN(C(=O)c2cnc(C)cn2)CC1 | 0.725 | i | -14.6 | -10.3 | -12.0 | 2.2 | . | 2.1 | 5.3
O=S(=O)(c1ccc2ccccc2c1)N1CCCCC1 | 0.725 | i | -27.6 | -22.3 | 4.0 | 3.3 | -10.3 | 5.0 | 0.3
CC(C)(C)OC(=O)NCCCC[C@H](NC(=O)c1[nH]cnc1C(=O)N[C@@H](Cc1ccccc1)C(=O)OC(C)(C)C)C(=O)OC(C)(C)C | . | i | 8.4 | 8.9 | -7.9 | 4.1 | -4.8 | 3.9 | 0.1
CCC(C)(C(=O)NC1CCCC1)N(C(=O)CC1NC(=O)NC1=O)c1ccc(C)cc1 (stereo not drawn) | 0.705 | . | . | . | . | -0.3 | . | 1.8 | -2.0

The list goes on:
SMILES | Ecoli growth | FGF22 binding | rRNA inh HTS | rRNA inh HTS OD600 | rRNA inh HTS RFP | HNF4A DNA FP | ALR H2O2 inh | UCH37 inh | Beta2AR agonist
Cc1ccc(Cl)cc1N1CCN(C(=O)CCCn2c(=O)c3cccn3c3cccnc32)CC1 | 0.716 | i | -12.4 | -25.2 | -3.3 | 0.7 | 0.0 | -2.9 | 9.0
C[C@H]1CN([C@@H](C)CO)S(=O)(=O)c2ccc(-c3cccc(F)c3)cc2O[C@@H]1CN(C)C | . | i | 1.0&-9.4 | -2.5&-10.6 | -1.1&-0.4 | 2.2 | . | . | .
CC(=O)c1c(C)oc2ccc(NS(=O)(=O)c3ccc(C)cc3)cc12 | 0.755 | i | 2.3 | 5.2 | 0.4 | -4.1 | -1.4 | 3.1 | 4.0
Cc1ccc([C@H]2C[C@H](O)[C@@H](n3cc(-c4ccc(F)cc4)nn3)CN2C(=O)c2cccs2)cc1 | . | i | -15.5 | -7.9 | -0.5 | 1.8 | . | . | .
CCN(CC(=O)Nc1ccc(OC)cc1)C(=O)c1cccc(S(=O)(=O)N2CCN(c3ccccc3)CC2)c1 | . | i | -3.1 | -5.4 | 1.5 | 0.6 | . | . | .
O=C(O)CSC1CC(=O)N(c2ccc(Br)cc2)C1=O (stereo not drawn) | 0.618 | i | 2.5 | -1.9 | 8.1 | -0.2 | -10.6 | 5.3 | 7.5
CC(C)=C1C2CCC1C1C(=O)N(c3nc(-c4ccc(F)cc4)c(C)s3)C(=O)C21 (stereo not drawn) | 0.731 | . | . | . | . | 0.6 | -10.3 | -0.6 | -6.8
O=C(N/N=C/c1ccccn1)c1ccc(Br)o1 | . | . | . | . | . | 1.1 | -5.1 | . | -3.8
Cc1ccc(S(=O)(=O)Cc2cn3cccnc3n2)cc1 | 0.724 | . | . | . | . | -1.2 | . | -292.2 | 16.7
Cc1ccc(C(OCC(O)CNCc2ccc(F)cc2)c2ccccc2)cc1 (stereo not drawn) | 0.6 | i | -69.4 | -82.4 | -22.7 | 2.2 | -6.1 | 1.5 | 4.4
O=C(Cn1c2c(c(=O)n3ncnc13)CCC2)N/N=C/c1ccc(Cl)cc1 | . | i | 11.2 | -6.9 | -0.9 | -1.1 | 0.2 | . | -0.5
CCOc1cc2[nH]c(=O)n(CCCC(=O)NCc3ccco3)c(=O)c2cc1OCC | 0.714 | . | . | . | . | 0.3 | -0.8 | -14.0 | -6.8
S=c1[nH]cnc2sc(-c3ccccc3)cc12 | . | i | 4.2 | 5.2 | 5.0 | 1.2 | . | . | -4.5
Cc1ccc2nc(N3CC(=O)Nc4ccccc43)nc(-c3ccccc3)c2c1 | 0.74 | . | . | . | . | 7.7 | . | -32.5 | -1.9
CCNC(=O)N1CCC(c2nc3ccccc3s2)CC1 | 0.663 | i | -11.6 | 2.8 | -6.5 | 2.1 | 73.7 | 2.8 | -6.0
COc1ccc(C(=O)N2CCN(c3nc4cc(C)cc(C)c4cc3C#N)CC2)cc1 | . | i | -16.2 | -15.6 | -0.1 | 1.3 | . | . | .
COc1ccc(CCNc2ccc(C(CC(N)=O)NC(=O)c3ccc(Br)cc3)cc2[N+](=O)[O-])cc1 (stereo not drawn) | . | i | 4.7 | 8.4 | -1.5 | 22.6 | 4.8 | . | -7.2
O=c1c2ccccc2oc2nc(-c3ccco3)n(Cc3ccccc3)c(=O)c12 | 0.703 | . | . | . | . | 3.2 | . | 6.7 | -22.1
Cc1cc(O)ccc1NC(=O)CCN1C(=O)c2ccc([N+](=O)[O-])cc2C1=O | 0.693 | . | . | . | . | 0.3 | . | 2.1 | -4.6
COc1ccc(-c2noc(CN3CCCCC3)n2)cc1OC | 0.677 | . | . | . | . | 0.3 | -7.6 | 1.5 | -11.9
Cc1c(C(=O)N(Cc2cccc(Br)c2)C2CCS(=O)(=O)C2)oc2ccccc12 (stereo not drawn) | 0.676 | i | -18.9 | -28.2 | 1.1 | 0.9 | -1.5 | 4.6 | -6.2
CC(Oc1cccc(Cl)c1)C(=O)N(C)CC(=O)Nc1ccc(N2CCOCC2)cc1 (stereo not drawn) | 0.718 | i | 11.8 | 4.3 | 3.0 | 0.2 | 93.2* | 3.1 | -4.3
CCCCN(CCCC)C(=O)C1(P(=O)(c2ccccc2)c2ccccc2)CCC1 | 0.716 | i | -32.1 | -37.5 | -3.7 | -0.3 | . | 2.1 | -0.8
CC1Cc2ccccc2N1Cc1cccc(S(=O)(=O)N(C)C)c1 (stereo not drawn) | 0.692 | i | -8.4 | -4.7 | 3.0 | 1.1 | 99.0* | 5.8 | 1.8
COc1cc(C(=O)N2CCC(NC(=O)C(Cc3ccc(C)cc3)NC(C)=O)CC2)cc(OC)c1OC (stereo not drawn) | 0.707 | i | 5.7 | 4.2 | -6.3 | -4.3 | -13.8 | 1.8 | 1.8
CCn1cnc2c1c(=O)n(CC(=O)Nc1ccc(C(N)=O)cc1)c(=O)n2Cc1ccccc1 | 0.688 | i | -5.6 | -7.5 | 0.4 | 2.1 | -5.2 | 4.3 | -8.8
Cc1ccc(C(=O)NCCCNC(=O)COc2ccccc2Cl)cn1 | 0.645 | i | -0.7 | 5.4 | 3.5 | 0.5 | -9.8 | 4.8 | 2.3
CCOc1ccc(-n2c(C)c(C(C)=O)c3cc(O)ccc32)cc1 | 0.666 | i | 10.4 | 4.0 | 2.1 | 1.1 | -4.4 | 6.3 | 4.3
COc1cccc(-c2cccc3c2NC(=O)C3(C)Cc2cccc(F)c2)c1 (stereo not drawn) | . | i | -0.7 | -37.0 | 2.1 | 2.0 | . | . | .
COc1ccc2c(c1)c1nnc(SCC(=O)N3C(C)CCCC3C)nc1n2C (stereo not drawn) | 0.718 | . | . | . | . | 1.6 | . | 3.1 | 8.8
CCCNC(=O)c1ccc(N2CCC3(CC2)CC(c2cccc(Br)c2)=NO3)c([N+](=O)[O-])c1 | 0.69 | i | 0.4 | 3.6 | -1.3 | 1.2 | . | 4.8 | -4.1
Nc1ccc(Nc2ccccc2)c(S(=O)(=O)O)c1 | . | . | -1.2 | 20.4 | 6.2 | -14.4 | . | . | 0.4
